MITF inh – MITF inhibition | TRPM1 promoter luciferase, luminescence, 24 h | inhibition, % (no concentration beside the values) | actives 0.28% (n = 37,000) | AID 2240;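 active = most replicates at 85% or more, or half of them and the mean; inconclusive = half reach 85% but not the mean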;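 also: human melanocyte line stably carrying TRPM1 promoter luciferase reporter; 0% = vehicle wells and 100% = a positive control; the first replicate is given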
Shh pathway inh – blocks Sonic Hedgehog signaling; Shh-LIGHT2 Gli-luciferase reporter, 30 h; inhibition, % (no concentration beside the values); actives 2.1% (n = 22,000);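 active = replicate mean of 65% or more; inconclusive = mean lower but half the replicates past it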;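 also: pathway switched on by Shh-conditioned medium diluted 1 in 25 in low serum; 100 nL library stock added to about 40 µL; 0% = median of neutral wells and 100% = positive control level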
PD-1 reverse act – reversal of PD-1 mediated T-cell inhibition. primary human CD4 T cells, PD-L1 beads, CellTiter-Glo 96 h. 29,000 tested, under 10 active. activation, % (concentration not given with the values). AID 2316;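 active = replicate mean of 50% or more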;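 also: 0% = median vehicle wells and 100% = positive control; 100 nL library stock added to about 50 µL; numbers are from one replicate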
YB-1 expr inh – YB-1 expression inhibition | U2OS, qRT-PCR YB-1 vs CDIP delta delta Cp, 16 h; hits give high values; zero = DMSO, each unit about twofold | delta delta Cp (YB-1 minus CDIP) (no concentration beside the values) | actives 0.37% (n = 30,000) | AID 434959;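 active = delta delta Cp rounded down to an integer at or above 3, about 3 SD of DMSO wells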;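 also: higher means less YB-1 transcript or more CDIP transcript relative to DMSO; stock transfer was 100 nL into about 100 µL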
Numbers without * were called inactive; u = inconclusive; x = no result given. A portion of the library. The share of hits here may be higher or lower than overall.

structure | MITF inh | Shh pathway inh | PD-1 reverse act | YB-1 expr inh
COc1ccc(/C=C/C(=O)O[C@@H]2[C@@H](OC(C)=O)[C@@H](OC(C)=O)[C@H](O[C@H]3[C@@H]4C=CO[C@@H](O[C@@H]5O[C@H](CO)[C@@H](O)[C@H](O)[C@H]5O)[C@@H]4[C@@]4(CO)O[C@@H]34)O[C@H]2C)cc1 | 22 | -23 | -0.5 | -0.34
CC(C)NC(=O)Nc1ccc2c(c1)C(=O)N([C@@H](C)CO)C[C@@H](C)[C@@H](CN(C)C(=O)Nc1ccc3c(c1)OCO3)O2 | -17 | -108 | x | -0.048
C[C@H]1CN([C@@H](C)CO)C(=O)Cc2cc(NS(=O)(=O)c3cccs3)ccc2O[C@@H]1CN(C)Cc1ccc(Cl)c(Cl)c1 | 24 | 49 | -0.6 | 0.22
C[C@@H]1CN([C@@H](C)CO)C(=O)c2cccc(NC(=O)CCCCCC(=O)Nc3ccccc3N)c2O[C@H]1CN(C)Cc1ccccc1 | 61 | x | -1.6 | -0.24
COc1ccc(S(=O)(=O)N(C)C[C@@H]2Oc3ccc(NC(=O)Cc4ccccc4)cc3C(=O)N([C@H](C)CO)C[C@@H]2C)cc1 | 4 | -2 | -1.3 | -0.33
COc1cc(Br)c(S(=O)(=O)NCCOc2ccc(C(C)(C)C)cc2)cc1OC | 42 | x | -3.6 | x
CCNC(=O)CN(c1ccc(Br)c(C)c1)S(C)(=O)=O | -25 | x | -0.4 | x
COc1ccc(NC(=O)N(C)C[C@@H]2Oc3ccc(N(C)C)cc3C(=O)N([C@H](C)CO)C[C@H]2C)cc1 | -13 | x | 0.4 | 0.31
C[C@H]1CN([C@@H](C)CO)C(=O)c2cc(NC(=O)NC3CCCCC3)ccc2O[C@@H]1CN(C)S(=O)(=O)c1cccs1 | -1 | x | x | 0.092
COc1ccc(NC(=O)Nc2cccc3c2O[C@@H](CN(C)S(C)(=O)=O)[C@H](C)CN([C@@H](C)CO)C3=O)cc1 | -9 | -44 | -1.0 | 0.74
COc1ccc(S(=O)(=O)Nc2ccc3c(c2)C(=O)N([C@H](C)CO)C[C@H](C)[C@H](CN(C)C(=O)NC(C)C)OCCCC[C@@H](C)O3)cc1 | 5 | 1 | 1.3 | -0.035
Cc1ccc(S(=O)(=O)N(C)C[C@H]2Oc3ccc(NS(=O)(=O)c4cccs4)cc3CC(=O)N([C@@H](C)CO)C[C@H]2C)cc1 | -11 | 14 | -0.8 | 0.06
C[C@H]1CN([C@@H](C)CO)C(=O)c2cc(NC(=O)CCC(F)(F)F)ccc2O[C@@H]1CN(C)S(=O)(=O)c1cccs1 | -13 | x | x | 0.24
O=C(O)CSc1nnc(C2CC2)n1-c1ccccc1 | -18 | x | 1.7 | x
FC(F)(F)C1CCN(c2ncccc2NC(=S)Nc2ccc(Cl)cc2)CC1 | 5 | 58 | 0.1 | 0.23
CN(CC(=O)Nc1ccc(F)cc1)S(=O)(=O)c1ccccc1 | -37 | x | 0.6 | x
COc1ccc(S(=O)(=O)Nc2cccc3c2O[C@@H](CN(C)S(=O)(=O)c2cn(C)cn2)[C@H](C)CN([C@@H](C)CO)C3=O)cc1 | -2 | -7 | 0.8 | -0.034
Cc1noc(C)c1NC(=O)N(C)C[C@@H]1Oc2c(NC(=O)Nc3cccc4ccccc34)cccc2C(=O)N([C@@H](C)CO)C[C@H]1C | 5 | 11 | 1.1 | 0.19
Cc1ccc(S(=O)(=O)N(C)C[C@@H]2Oc3ccc(NC(=O)Nc4ccccc4)cc3C(=O)N([C@@H](C)CO)C[C@H]2C)cc1 | -28 | 4 | 1.4 | 0.083
COc1ccc(-c2nnc(SCc3ccc([N+](=O)[O-])c(OC)c3)n2-c2ccccc2)cc1 | 18 | x | -0.7 | x
CCn1c(SCC(=O)Nc2ccc(C(N)=O)cc2)nnc1-c1ccc(F)cc1 | -7 | x | 1.5 | x
C[C@H]1CN([C@@H](C)CO)C(=O)Cc2cc(NC(=O)c3ccncc3)ccc2O[C@H]1CN(C)Cc1ccc(Cl)c(Cl)c1 | 10 | 29 | -2.2 | -0.11
O=C(/C=C/c1ccccc1)CC(O)(c1ccccc1)C(F)(F)F (stereo not drawn) | 41 | 37 | -36 | -0.045
O=C(NCCSc1nc2cc(C(F)(F)F)ccc2s1)C12CC3CC(CC(C3)C1)C2 | 22 | x | -2.9 | x
C[C@@H]1CN([C@@H](C)CO)C(=O)c2cc(NS(C)(=O)=O)ccc2O[C@@H]1CN(C)Cc1ccc(Cl)c(Cl)c1 | -23 | x | -1.3 | -0.18

Compounds listed so far with bromine, in the order listed:
structure | MITF inh | Shh pathway inh | PD-1 reverse act | YB-1 expr inh
COc1cc(Br)c(S(=O)(=O)NCCOc2ccc(C(C)(C)C)cc2)cc1OC | 42 | x | -3.6 | x
CCNC(=O)CN(c1ccc(Br)c(C)c1)S(C)(=O)=O | -25 | x | -0.4 | x

Structures shown so far with a Cl atom (4):
structure | MITF inh | Shh pathway inh | PD-1 reverse act | YB-1 expr inh
C[C@H]1CN([C@@H](C)CO)C(=O)Cc2cc(NS(=O)(=O)c3cccs3)ccc2O[C@@H]1CN(C)Cc1ccc(Cl)c(Cl)c1 | 24 | 49 | -0.6 | 0.22
FC(F)(F)C1CCN(c2ncccc2NC(=S)Nc2ccc(Cl)cc2)CC1 | 5 | 58 | 0.1 | 0.23
C[C@H]1CN([C@@H](C)CO)C(=O)Cc2cc(NC(=O)c3ccncc3)ccc2O[C@H]1CN(C)Cc1ccc(Cl)c(Cl)c1 | 10 | 29 | -2.2 | -0.11
C[C@@H]1CN([C@@H](C)CO)C(=O)c2cc(NS(C)(=O)=O)ccc2O[C@@H]1CN(C)Cc1ccc(Cl)c(Cl)c1 | -23 | x | -1.3 | -0.18

The listing continues.
structure | MITF inh | Shh pathway inh | PD-1 reverse act | YB-1 expr inh
C[C@H](CO)N1C[C@H](C)[C@H](CN(C)C(=O)Nc2ccc(F)cc2)Oc2ccc(NS(C)(=O)=O)cc2C1=O | -20 | x | 1.1 | -0.014
Cc1ccc(Oc2ccc(NC(=O)CCCC(=O)O)cc2)cc1C | -30 | x | 2.7 | x
COc1ccc(S(=O)(=O)Nc2ccc3c(c2)CC(=O)N([C@@H](C)CO)C[C@H](C)[C@H](CN(C)S(=O)(=O)c2c(C)noc2C)O3)cc1 | -1 | 6 | 2.7 | 0.17
COc1ccc(NC(=O)c2cccnc2C(=O)O)c(OC)c1 | -22 | x | 1.5 | x
CN(c1ccc(C(=O)NCc2cccnc2)cc1)S(C)(=O)=O | 0 | x | 3.2 | x
Cc1noc(C)c1NC(=O)N(C)C[C@@H]1Oc2ccc(NC(=O)Cc3cn(C)c4ccccc34)cc2C(=O)N([C@H](C)CO)C[C@H]1C | 2 | x | -0.6 | -0.2
Cc1noc(C)c1NC(=O)N(C)C[C@H]1Oc2ccc(NS(=O)(=O)c3cn(C)cn3)cc2CC(=O)N([C@@H](C)CO)C[C@H]1C | 4 | -14 | 1.0 | 0.2
Cc1cccc(C)c1NC(=O)CSc1nnnn1-c1c(C)cccc1C | 12 | x | 1.9 | x
O=C(COc1ccccc1)Nc1ccc2oc(-c3cccc(I)c3)nc2c1 | -45 | x | -1.3 | x
C[C@@H]1CN([C@@H](C)CO)C(=O)c2cccc(NC(=O)c3ccncc3)c2O[C@@H]1CN(C)C(=O)NC1CCCCC1 | -3 | -38 | 0.6 | -0.44
Cc1noc(C)c1NC(=O)N(C)C[C@H]1Oc2ccc(NC(=O)C3CCCCC3)cc2C(=O)N([C@H](C)CO)C[C@@H]1C | -12 | 0 | 0.8 | -0.24
C[C@@H]1CN([C@@H](C)CO)C(=O)c2cc(NC(=O)NC3CCCCC3)ccc2O[C@@H]1CN(C)Cc1ccc(-c2ccccc2)cc1 | 9 | 4 | -6.2 | -0.032
C[C@@H]1CN([C@H](C)CO)C(=O)c2cc(NC(=O)Cc3cn(C)c4ccccc34)ccc2O[C@H]1CN(C)Cc1ccc(C(F)(F)F)cc1 | 13 | x | 0.7 | -0.35
OCc1ccccc1O | -7 | -19 | x | 0.16
CC1CCCC(C)N1S(=O)(=O)c1ccc(NC(=O)CCn2cnc3ccccc3c2=O)cc1 (stereo not drawn) | 10 | x | 0.1 | x
O=c1c(O[C@@H]2O[C@H](CO)[C@H](O)[C@H](O)[C@H]2O)c(-c2ccc(O)cc2)oc2cc(O)cc(O)c12 | 5 | 9 | -1.5 | 0.16
CCN1C(=O)C(O)(CC(=O)c2ccco2)c2cc(Br)ccc21 (stereo not drawn) | -1 | x | -13 | x
Cc1ccc(OCC(=O)Nc2ccccc2-c2nc3ccccc3s2)cc1C | 5 | x | -0.1 | x
COC(=O)C1=C(C)NC2=C(C(=O)CC(C)(C)C2)C1c1ccncc1 (stereo not drawn) | -4 | x | -0.5 | -0.23
CCN1CCCC1CNC(=O)c1cc(NC(C)=O)c(N(C)C)cc1OC (stereo not drawn) | -15 | x | 0.6 | 0.096
C[C@@H]1CN([C@H](C)CO)C(=O)Cc2cc(NC(=O)NC3CCCCC3)ccc2O[C@H]1CN(C)C(=O)Nc1ccccc1 | -1 | x | x | -0.26
C[C@@H]1CN([C@@H](C)CO)C(=O)c2cc(NS(=O)(=O)c3cccs3)ccc2O[C@H]1CN(C)C(=O)Nc1ccc(F)cc1 | 8 | 2 | 0.0 | 0.075
CC(=O)c1cccc(NC(=O)CSc2nc3ccccc3c(=O)n2-c2ccccc2)c1 | 6 | x | -0.2 | x
Cn1c(=O)cc(Nc2ccccc2)c2c(=O)n(-c3ccccc3)c(=O)n(-c3ccccc3)c21 | -25 | 27 | -1.7 | -0.33
Cc1cc(C)c(S(=O)(=O)NCC(=O)Nc2ccc(Br)cc2)c(C)c1 | 5 | x | -6.7 | x
C[C@@H]1CN([C@@H](C)CO)C(=O)c2cccc(NS(=O)(=O)c3cn(C)cn3)c2O[C@H]1CN(C)Cc1ccc(Cl)c(Cl)c1 | -17 | 28 | 0.1 | 0.075
CC1=CCC(C(C)(C)O[C@@H]2O[C@H](CO[C@@H]3O[C@H](COC(=O)c4cc(O)c(O)c(O)c4)[C@@H](O)[C@H](O)[C@H]3O)[C@@H](O)[C@H](O)[C@H]2O)CC1 (stereo partly drawn) | x | -48 | x | 0.5
CO/N=C(\C(=O)NC1C(=O)N2C(C(=O)OCOC(=O)C(C)(C)C)=C(/C=C\c3scnc3C)CSC12)c1csc(N)n1 (stereo not drawn) | -2 | -20 | x | 0.26
CC(C)NC(=O)Nc1ccc2c(c1)CC(=O)N([C@H](C)CO)C[C@H](C)[C@H](CN(C)CC1CCCCC1)O2 | -11 | -14 | x | -0.076
C[C@@H]1CN([C@@H](C)CO)C(=O)c2cc(NC(=O)Nc3ccc(F)cc3)ccc2O[C@H]1CN(C)Cc1ccc(-c2ccccc2)cc1 | 13 | -33 | x | 0.023
Nc1ccc(S(=O)(=O)NC(=O)c2ccccc2)cc1 | -5 | -30 | x | -0.023
C=C1C(=O)O[C@@H]2/C=C(/C)[C@@H]3C/C=C(/C[C@@H](OC(=O)/C(=C/CO)CO)[C@@H]12)C[C@@](O)(C(C)C)C(=O)O3 | -28 | u | -10 | -0.11
C[C@H]1CN([C@@H](C)CO)C(=O)Cc2cc(NC(=O)Nc3ccc(F)cc3)ccc2O[C@@H]1CN(C)CC1CCCCC1 | 10 | 7 | 1.1 | 0.37
CCOC(=O)c1ccc2[nH]c(C)c(CN3CCN(C)CC3)c(=O)c2c1 | -1 | x | 2.9 | x
C[C@@H]1CCCCO[C@@H](CN(C)Cc2ccncc2)[C@@H](C)CN([C@H](C)CO)C(=O)c2cc(NC(=O)Nc3ccccc3)ccc2O1 | -2 | 4 | 0.7 | 0.16
CC(C)(C)c1ccc(S(=O)(=O)NCC(=O)Nc2cccc(Cl)c2)cc1 | 8 | x | -5.2 | x
C[C@@H]1CN([C@H](C)CO)C(=O)c2cc(NC(=O)CCN3CCOCC3)ccc2O[C@@H]1CN(C)Cc1ccc(C(=O)O)cc1 | -3 | -30 | 1.3 | -0.049
Cc1ccc(NC(=O)C(C)Sc2nccc(C)n2)cc1 (stereo not drawn) | 2 | x | 0.1 | x
C[C@H]1CN([C@@H](C)CO)C(=O)c2cc(NC(=O)C3CCCCC3)ccc2O[C@H]1CN(C)Cc1ccc(Cl)c(Cl)c1 | 9 | x | 0.3 | -0.35
COc1ccc(NC(=O)Nc2ccc3c(c2)C(=O)N([C@@H](C)CO)C[C@@H](C)[C@@H](CN(C)S(=O)(=O)c2ccc(C)cc2)O3)cc1 | 5 | -5 | -1.3 | 0.38
C[C@@H]1CN([C@@H](C)CO)C(=O)c2cc(NS(=O)(=O)c3cccs3)ccc2O[C@@H]1CN(C)Cc1ccc(C(=O)O)cc1 | 3 | 5 | 3.2 | 0.17
C[C@@H]1CCCCO[C@H](CN(C)C(=O)NC2CCCCC2)[C@@H](C)CN([C@H](C)CO)C(=O)c2cc(NS(=O)(=O)c3ccc(Cl)cc3)ccc2O1 | -1 | -11 | x | -0.057
CNC[C@H]1Oc2c(NC(=O)Nc3ccc(OC)cc3)cccc2C(=O)N([C@H](C)CO)C[C@@H]1C | -22 | -55 | 1.1 | 0.12
O=C(CSc1nc(-c2ccccc2)cc(C(F)(F)F)n1)c1cccc([N+](=O)[O-])c1 | -3 | x | 0.0 | x
C[C@H](CO)N1C[C@H](C)[C@@H](CN(C)Cc2ccc(Cl)c(Cl)c2)Oc2c(NC(=O)c3cnccn3)cccc2C1=O | 4 | 1 | x | 0.39

Screens from PubChem.
